# From PubChem
# NPYLR7 agonist = activates Aedes aegypti NPYLR7 receptor. 270,000 compounds, 0.15% hits. AID 1259423. activation, % at 10 µM. HEK293T NPYLR7/Galpha15, GCaMP6s calcium fluorescence; in the data active = activation above about 40%;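 also: 0% = vehicle and 100% = reference agonist at the receptor; some compounds past the cut are filed as inactive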
# NPYLR7 agonist max-min = second read-out of NPYLR7 agonist, no call of its own (marks repeat the call); activation, %; measured here: Max-Min RFU normalised activation; some inactives read as strong as hits;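 span of the calcium signal over five minutes; 0% = vehicle and 100% = native peptide agonist; compound fluorescence can raise it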
# * = called active by the depositor.
SMILES,NPYLR7 agonist,NPYLR7 agonist max-min
CCn1nc(C)cc1C(=O)N1CCC2(CCCN(Cc3cccc(F)c3F)C2)C1 (stereo not drawn),5.9,5.7
CCOc1ccc(-c2cc(C(=O)NCCCN3CCCCC3C)c3ccccc3n2)cc1 (stereo not drawn),-7.9,-4.7
COc1ccc(Cl)cc1C(=O)Nc1cc(-c2nc3ccc(C)cc3o2)ccc1C,1.5,1.5
CC(=O)C(N=Nc1c[nH]c(=O)[nH]c1=O)=C(C)O,-10.5,-14.2
CCc1ccccc1NC(=O)N1CCCC1c1ccnn1CC (stereo not drawn),-1.2,-4.1
COc1ccc(OC)c(COC(=O)CCc2ncn[nH]2)c1,-1.1,2.2
CC=CCn1c(=O)c2c(nc3n(C(C)c4ccccc4)c(C)c(C)n23)n(C)c1=O (stereo not drawn),2.8,7.9
Cc1noc(C)c1S(=O)(=O)NC(=O)C1(C)CCN1C(=O)c1cccc2ccccc12 (stereo not drawn),2.7,1.9
COCC(=O)Nc1nnc(SCc2cccc(Cl)c2F)s1,2.7,7.3
CCN(C(=O)c1coc2ccccc12)C(C)CO (stereo not drawn),0.6,-1.0
O=C(c1ccc2nc(C3CCCCC3)oc2c1)N1CCCC(c2nc3ccccc3o2)C1 (stereo not drawn),2.7,-2.8
CC1(C)[C@H]2CC=C(CCNC3CCN(c4ccc(C(=O)N5CCOCC5)cc4)CC3)[C@@H]1C2,21.2,6.1
CC(C)N1CCC(NS(=O)(=O)c2ccc(Cl)c(Cl)c2)CC1,5.3,4.6
O=C(CN1CCOCC1)N1N=C(c2ccc(F)cc2)CC1c1ccc2c(c1)OCO2 (stereo not drawn),-1.8,6.8
CCCN(Cc1ccccc1F)C(=O)C1CC=CCC1 (stereo not drawn),-4.8,-6.5
COCCN(CCC(=O)N1CCN(c2ccccc2OC)CC1)c1nc(Cc2ccc(F)cc2)ns1,8.5,15.5
CCCNC(=O)NC(=O)CSc1nnc(N2CCCCC2)n1-c1ccc(C)cc1,-2.0,6.0
Cc1ncc(CO)c(CN2CCc3[nH]cnc3C2Cc2ccccc2)c1O (stereo not drawn),-0.3,-2.0
CCOC(=O)C1CSCCN1Cn1ncc2ccccc2c1=O (stereo not drawn),-4.7,-6.3
COc1cccc(OCc2cc(C(=O)NC(C)c3c(C)nn(C)c3C)n[nH]2)c1 (stereo not drawn),15.5,1.9
Cc1ccc(C(C(=O)N(C)Cc2ccc3nsnc3c2)N(C)C)cc1 (stereo not drawn),7.7,-7.3
Cc1onc(-c2ccccc2)c1C(=O)N1CCc2ccccc2C1c1ccccc1F (stereo not drawn),19.2,8.5
COC(=O)c1ccc(C(=O)NCc2cn3cccc(C)c3n2)s1,-4.3,-7.1
COC(=O)c1nc(-c2ccccc2)oc1N1CCCCC1,-3.3,-7.8
CC(C)c1cc(C(=O)N2CCC3(CCCN(Cc4ccc(F)cc4)C3)C2)nc(N)n1 (stereo not drawn),6.0,4.7
CC(=O)c1c(C)[nH]c(C(=O)CSc2nc(N)cc(=O)[nH]2)c1C,13.3,13.5
Cc1noc(-c2cccnc2)c1C(=O)NC(C)c1ccc(Br)cc1 (stereo not drawn),6.0,-0.1
Cc1cc(/C=N\NC(=O)COc2cccc3cccnc23)c(C)n1-c1ccccc1,-8.1,-14.1
N#CC1(c2ccccc2)CCN(C(=O)C2CCCCC2C(=O)NC(c2ccccc2)c2ccccc2)CC1 (stereo not drawn),2.2,-3.5
NC(=O)c1nc(-c2ccccc2Cl)nc2c1[nH]c(=O)n2-c1ccc2c(c1)OCO2,-2.4,-5.7
CC1Cc2cc(-c3cc(CNC(=O)C4CCCC4)no3)ccc2O1 (stereo not drawn),-2.5,-4.9
C=CCn1c(SCC(=O)Nc2ccc(OC)cc2)nc2sc3c(c2c1=O)CCCC3,-4.8,-10.3
CC1CCC(N2CCC(N(C)C(=O)C3CC34CCOCC4)CC2)CC1 (stereo not drawn),7.2,6.1
CCOC(=O)c1cc(C)nn1C1CCN(C(=O)COc2ccc(Cl)cc2)CC1,-5.2,-7.0
O=c1[nH]c(Cn2cc(Br)cn2)nc2cccc(F)c12,-1.2,-2.2
CCCc1noc(-c2c(-c3ccccc3Cl)noc2C)n1,-12.0,-15.8
CCOc1ccc(N2C(=O)CSC2c2cccc(NS(=O)(=O)c3ccc(Cl)cc3)c2)cc1 (stereo not drawn),10.6,9.2
CCCCCC(=O)Nc1cc(C(=O)OC)cc(C(=O)OC)c1,-1.2,-2.4
Nc1cc(-c2cccc(C3CCCN3)c2)c2cc[nH]c2n1 (stereo not drawn),8.0,3.6
COc1ccc(N2CCN(c3nnc(SC(C)C)s3)CC2)cc1,-2.9,5.5
COc1cccc(C2=NN(C(=O)CN3CCOCC3)C(c3ccc(Cl)cc3)C2)c1 (stereo not drawn),-7.3,-3.9
COc1cc(Cl)ccc1NC(=O)CCCSc1nc2c3ccccc3ncn2n1,9.5,10.8
CCOC(=O)C(Cc1ccc(Cl)cc1)NC(=O)C1(C(=O)OC)CC1 (stereo not drawn),15.9,10.8
CC1(C)OCC(CNC(=S)Nc2cccc(C(F)(F)F)c2)O1 (stereo not drawn),-6.9,-16.2
Cc1nc2cc(C(F)(F)F)ccc2n1C1CCN(C(=O)Cc2ccccc2F)CC1,4.1,1.7
Cc1ccccc1NC(=O)CSc1nc(N)c(NC(=O)c2ccc(Cl)cc2)c(=O)[nH]1,3.9,2.8
NC(=O)c1ccc(CN2CCN(Cc3ccc(C(N)=O)cc3)C3(CCCCC3)C2)cc1,-6.2,-5.6
Cc1cc(=O)c(C(=O)N(C)CC(=O)Nc2cccc(F)c2)nn1-c1cccc(C(F)(F)F)c1,-1.8,1.6
O=C(Nc1ccc(F)cc1F)N1CCC(Cc2ccc(C(F)(F)F)cc2)CC1,-0.4,3.5
CCNC(=O)N(CC(=O)N1CCc2sccc2C1COc1ccc(Cl)cc1)CC1CCCO1 (stereo not drawn),-1.0,5.2
O=C(Nc1ccncc1)c1cc([N+](=O)[O-])ccc1Cl,-7.1,-12.2
CCCCN(CCC(=O)NCCC(c1ccccc1)c1ccccc1)c1nc(Cc2ccc(C)cc2)ns1,0.5,14.5
CC(C)c1nc(SC2CCOC2=O)n[nH]1 (stereo not drawn),5.4,2.3
CCc1nc(-c2nccn2CCC2COc3ccccc3O2)c(C)[nH]1 (stereo not drawn),20.6,6.8
CC(C)(C)Oc1ccnc(OC(C)(C)C)n1,-2.2,-2.6
c1ccc2[nH]c(NC3=NCCC3)nc2c1,-3.6,-4.2
COc1cc(OC)nc(NS(=O)(=O)c2ccc(NC(=O)c3ccc4ccccc4n3)cc2)n1,19.1,11.5
O=C1CN(C(=O)C2CC2c2ccc(Cl)cc2Cl)CCN1 (stereo not drawn),-1.6,-0.7
CC1CCCC(C)N1CC(O)COc1cccc2c3c(oc12)CCCC3 (stereo not drawn),-17.4,-12.9
CN(Cc1cc(-c2ccccc2)no1)C(=O)c1ccc(CO)o1,3.8,0.6
# (next part)
SMILES,NPYLR7 agonist,NPYLR7 agonist max-min
Brc1ccc(C(NCc2ccon2)c2ccccc2)cc1 (stereo not drawn),2.2,2.3
c1ccc2c(c1)CC(N1CCC(CN(Cc3ccsc3)CC3CCCO3)CC1)C2 (stereo not drawn),8.1,5.2
C=C(C)CSc1nc2cc(S(N)(=O)=O)ccc2n1CC,0.8,-0.4
Cc1cccc(CO[C@]2(C(=O)NCCN3CCOCC3)CC(OCc3c(F)cccc3F)[C@H](O)[C@H](O)C2)c1 (stereo partly drawn),2.4,4.1
Cc1ccccc1C(=O)NCCn1ncccc1=O,2.3,2.3
CCCCN(Cc1ccco1)Cc1nn(C)cc1Cl,4.2,6.9
CC(C)n1ncc2cc(NC(=O)C3CC(=O)N(Cc4ccccc4)C3)cnc21 (stereo not drawn),-6.2,-8.9
O=C(NCc1ccccc1)N1CCn2cccc2C1c1ccccc1F (stereo not drawn),7.4,1.9
Cc1nc2c(c(N3CC[C@@H]4CCCC[C@@H]4C3)n1)CNC2,0.5,-1.3
Cc1noc(-c2ccc3c(c2)OCO3)c1C(=O)NCCc1ccncc1,8.2,20.3
CC(O)CN(Cc1cccc(F)c1)CC1CC(c2ccc(Cl)cc2)=NO1 (stereo not drawn),-0.4,5.0
COc1cc(C(=O)N(Cc2cccnc2)c2nc3c(F)cc(F)cc3s2)cc(OC)c1OC,-4.4,-1.6
CC1C(=O)N(c2ccccc2-c2ccccc2)CCN1C(=O)c1ccc(Br)cc1 (stereo not drawn),-4.0,7.0
CC(c1nccs1)N(C)C(=O)CCc1nnc(CCc2ccccc2)o1 (stereo not drawn),4.4,1.5
O=C(OCCO)C1CC1c1ccccc1C(F)(F)F (stereo not drawn),0.4,-0.6
Cc1ccc(-c2nc(CONC(=O)c3cccs3)cs2)o1,10.1,10.0
Cc1ccc(-c2cc(C(F)(F)F)c(C#N)c(=S)[nH]2)cc1,5.0,1.6
CCOC(=O)N1CCN(C(=O)CSC2=C(C#N)C(C)(C)C(C#N)C(=O)N2)CC1 (stereo not drawn),2.1,1.5
C=CCN1CCc2cc(OC)c(OC)cc2C1CNC(=O)c1ccccc1Cl (stereo not drawn),28.1,26.3
CCN1C(=O)N(CCc2ccccc2)C2(CCN(Cc3cccc(OC)c3OC)CC2)C1=O,17.7,-0.4
COc1ccc(OC)c(-n2c(-c3ccccc3)cc(C(=O)Nc3ccc(C)cc3)c2C)c1,-1.1,3.5
COc1ccc(CCN(CC2CCN(C)CC2)C(=O)c2sccc2C)cc1,15.2,6.6
O=S(=O)(Nc1ccc(-c2nccs2)cc1)c1ccc(C(F)(F)F)cc1,7.7,3.3
CC(NC(=O)N1CCSCC1)c1ccc(-c2ccncc2)cc1 (stereo not drawn),0.4,-2.7
CSCC(C)C(=O)NCC1CCCC1NS(C)(=O)=O (stereo not drawn),-6.8,-7.2
CC(=O)c1ccc(-n2cc(-c3ccc(C(C)(C)C)cc3)[n+]3c2SCCC3)cc1,0.7,-0.5
Cc1cnc(C)c(N2CCOc3c(O)cc(-c4ccccc4C)cc3C2)n1,1.2,0.5
CCCc1nc(N2CCCN(C(=O)Nc3ccc(OC)cc3OC)CC2)c2c(-c3ccccc3)noc2n1,17.1,7.2
c1ccc(C2CCCN(Cc3cc4n(n3)CCCNC4)CC2)cc1 (stereo not drawn),4.5,4.0
CCc1ccccc1NC(=O)c1nnn(CC(=O)Nc2cc(C)ccc2C)c1N,-5.2,-10.4
O=c1cc(-c2ccccc2)n2c(=S)[nH]nc2[nH]1,-3.3,-3.8

# Gathered by group: the entries above with a Cl atom.
SMILES,NPYLR7 agonist,NPYLR7 agonist max-min
COc1ccc(Cl)cc1C(=O)Nc1cc(-c2nc3ccc(C)cc3o2)ccc1C,1.5,1.5
COCC(=O)Nc1nnc(SCc2cccc(Cl)c2F)s1,2.7,7.3
CC(C)N1CCC(NS(=O)(=O)c2ccc(Cl)c(Cl)c2)CC1,5.3,4.6
NC(=O)c1nc(-c2ccccc2Cl)nc2c1[nH]c(=O)n2-c1ccc2c(c1)OCO2,-2.4,-5.7
CCOC(=O)c1cc(C)nn1C1CCN(C(=O)COc2ccc(Cl)cc2)CC1,-5.2,-7.0
CCCc1noc(-c2c(-c3ccccc3Cl)noc2C)n1,-12.0,-15.8
CCOc1ccc(N2C(=O)CSC2c2cccc(NS(=O)(=O)c3ccc(Cl)cc3)c2)cc1 (stereo not drawn),10.6,9.2
COc1cccc(C2=NN(C(=O)CN3CCOCC3)C(c3ccc(Cl)cc3)C2)c1 (stereo not drawn),-7.3,-3.9
COc1cc(Cl)ccc1NC(=O)CCCSc1nc2c3ccccc3ncn2n1,9.5,10.8
CCOC(=O)C(Cc1ccc(Cl)cc1)NC(=O)C1(C(=O)OC)CC1 (stereo not drawn),15.9,10.8
Cc1ccccc1NC(=O)CSc1nc(N)c(NC(=O)c2ccc(Cl)cc2)c(=O)[nH]1,3.9,2.8
CCNC(=O)N(CC(=O)N1CCc2sccc2C1COc1ccc(Cl)cc1)CC1CCCO1 (stereo not drawn),-1.0,5.2
O=C(Nc1ccncc1)c1cc([N+](=O)[O-])ccc1Cl,-7.1,-12.2
O=C1CN(C(=O)C2CC2c2ccc(Cl)cc2Cl)CCN1 (stereo not drawn),-1.6,-0.7
CCCCN(Cc1ccco1)Cc1nn(C)cc1Cl,4.2,6.9
CC(O)CN(Cc1cccc(F)c1)CC1CC(c2ccc(Cl)cc2)=NO1 (stereo not drawn),-0.4,5.0
C=CCN1CCc2cc(OC)c(OC)cc2C1CNC(=O)c1ccccc1Cl (stereo not drawn),28.1,26.3

# A portion of the library. The share of hits here may be higher or lower than overall.
